High-throughput results as filed in PubChem BioAssay.
PINK1 modulator – PINK1 expression modulation; AID 624263; actives 0.2% (n = 410,000); Potency, µM (doses to about 76.6 µM), for the others: at the top dose activation (PINK1 increase), hits mostly activators; PINK1 immunofluorescence, high-content cytometry, 24 h; active = well fitted activation curve with a large enough effect; inconclusive = small, poorly fitted or top-dose-only effect; inactive = flat fitted curve, though single readings scatter; cell line not stated here;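 further: potency means the concentration at half of the fitted maximal effect; % of control where 0% means no effect; nearly all actives have a fitted effect of over 65% in size; a mitochondrial uncoupler was the plate control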
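PINK1 protein level read as immunofluorescence by microplate cytometer in a fixed, stained stable cell line after 24 h exposure to five compound concentrations, with CCCP as control.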
D2 agonist – activates the human D2 dopamine receptor; P14416; DiscoveRx PathHunter D2 beta-arrestin, luminescence, 90 min; 100% = 57 uM dopamine signal; activation, % (test concentration not listed); AID 624465; actives 0.084% (n = 360,000); in the data active = activation above about 40%; inconclusive = about 15% to 40%; inactive = below about 15%; further: compound concentration not given in the record; the text of the record calls up to 30% inactive
Target sequence (P14416 whole entry, looked up): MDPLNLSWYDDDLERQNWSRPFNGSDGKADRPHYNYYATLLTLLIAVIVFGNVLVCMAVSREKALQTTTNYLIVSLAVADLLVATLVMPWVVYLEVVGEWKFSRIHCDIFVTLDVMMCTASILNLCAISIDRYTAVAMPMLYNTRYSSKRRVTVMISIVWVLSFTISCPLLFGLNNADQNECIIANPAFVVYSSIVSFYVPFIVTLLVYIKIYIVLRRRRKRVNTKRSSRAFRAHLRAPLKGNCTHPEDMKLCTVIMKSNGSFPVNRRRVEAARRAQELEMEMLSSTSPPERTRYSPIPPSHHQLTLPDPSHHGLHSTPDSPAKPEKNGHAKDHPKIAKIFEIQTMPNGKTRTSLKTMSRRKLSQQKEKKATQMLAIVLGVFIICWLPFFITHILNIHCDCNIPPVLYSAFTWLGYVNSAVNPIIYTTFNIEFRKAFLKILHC
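DiscoveRx PathHunter D2 beta-arrestin cells (2,100/well) attached overnight, then compound-stimulated 90 min at 37 C in HBSS/10 mM HEPES/0.1% Tween-20 buffer; beta-galactosidase complementation read by luminescence after 1 h at ambient temperature. Dopamine 57 uM final (EC100) as control.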
gsp antag – antagonists of gsp mutant (McCune-Albright syndrome); gsp-mutant cells, cAMP HTRF, 30 min; control for the full effect not named in the record; AID 624288; actives 0.4% (n = 340,000); Potency, µM (doses to about 76.9 µM), for inactives: top-dose activity change, negative = inhibition, usual class: inhibitors; active = falling curve of any shape with a large fitted effect; inconclusive = falling curve, mostly with a smaller effect; inactive = flat or rising curve; cell line not stated here;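 further: intracellular cAMP measured with PDE inhibitor Ro 20-1724 present during compound exposure; potency means the concentration at half of the fitted maximal effect; on the % scale 0 is the no-effect control and ±100 the full control effect; nearly all actives have a fitted effect of over 65% in size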
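HTRF cAMP measurement after 30 min RT detection following 30 min, 37C compound treatment alongside […] (added as 300 uM solution) in G418-selected cells seeded at 2000/well and grown 16–24 h.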
Menin-MLL FL inh – displaces fluorescein MLL peptide from human menin | Fluorescence polarization, fluorescein-MLL peptide displacement from menin | FP activity change, % at 61.4 µM | 290,000 tested, under 10 active; inconclusive = falling polarisation curve, or a change in total fluorescence; inactive = total fluorescence flat and polarisation flat or rising; no compound was filed as active; the % refers to the polarisation; negative = inhibition;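 further: % of control where 0% means no effect; inhibitors lower the polarisation; unlabelled MLL peptide was the positive control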
Sfp inh – inhibitors of Bacillus subtilis Sfp phosphopantetheinyl transferase; Q9F4F7; Biochemical Sfp PPTase activity, qHTS; Potency, µM, inactives show max response, negative = inhibition, hits mostly inhibitors; actives 3.5% (n = 310,000); active means well fitted inhibition curve with a large enough effect; inconclusive means small, poorly fitted or top-dose-only effect, or another doubt; inactive means no such curve, though single readings can be large or run the other way;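 further: the enzyme is Sfp with the accession as filed and its product quenches rhodamine fluorescence; potency means the concentration at half of the fitted maximal effect; 0% = enzyme reaction without inhibitor and -100% = no enzyme wells; top concentration of the series not given in the record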
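Step 1, compound plus 15 nM Sfp-PPTase, 15 min, room temperature. Step 2, add rhodamine-CoA (5 uM) and BHQ-2-YbbR (12.5 uM). Step 3, read 525/598 nm fluorescence at 0 and 30 min.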
ClpP mod – qHTS Assay for Activators of ClpP. ATP-dependent Clp protease proteolytic subunit (Bacillus subtilis (strain 168)), P80244. purified B. subtilis ClpP, FRET peptide cleavage, 20 min. Potency, µM (titrated, usually from 57.5 µM), for the others: at the top dose activity change, negative = active. actives 1.9% (n = 340,000). AID 651965, 2013; active = well fitted falling curve with a large enough effect; inconclusive = small, poorly fitted or top-dose-only effect; inactive = no such curve, though single readings can be large or run the other way; further: potency means the concentration at half of the fitted maximal effect; the source files actives as falling curves though it sought activators and does not explain the sign; nearly all actives have a fitted effect of over 65% in size; many hits overshoot -100%
Target sequence (P80244 whole entry, looked up): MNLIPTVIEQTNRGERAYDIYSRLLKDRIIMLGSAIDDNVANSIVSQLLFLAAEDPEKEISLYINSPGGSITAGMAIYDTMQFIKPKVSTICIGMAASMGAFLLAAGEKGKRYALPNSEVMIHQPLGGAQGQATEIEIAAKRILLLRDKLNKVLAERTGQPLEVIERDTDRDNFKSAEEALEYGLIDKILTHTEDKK
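Purified B. subtilis ClpP, 10 microg/mL final in Tris/HCl pH8 with KCl, BSA, glycerol and Tween-20, cleaved an Abz/nitrotyrosine-quenched decapeptide. Fluorescence (ex 320, em 430) was read at 0 and 20 min at room temperature. Delta was normalized to 5.8 microM ADEP and DMSO/no-enzyme controls.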
gsp ag – activates gsp, the McCune-Albright syndrome mutation; Potency, µM (doses to about 76.9 µM), inactives show at the highest dose activation (cAMP increase), usual class: activators; gsp mutant cells, cAMP HTRF, 30 min; control for the full effect not named in the record; actives 0.13% (n = 340,000); active = well fitted activation curve with a large enough effect; inconclusive = small, poorly fitted or top-dose-only effect, or another doubt; inactive = no such curve, though single readings can be large or run the other way; cell line not stated here;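 further: phosphodiesterase inhibitor Ro 20-1724 added with compounds to block cAMP breakdown; potency means the concentration at half of the fitted maximal effect; nearly all actives have a fitted effect of over 60% in size; about a fifth of the inactives were tested at one dose only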
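Cells in DMEM/10% FBS with G418 were pretreated with compounds in DMSO plus […] (300 uM stock) for 30 min at 37C. cAMP was measured by HTRF (cAMP-d2 plus anti-cAMP antibody-K) after 30 min at room temperature.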
Starred values were filed as active, the others as inactive; ? = inconclusive; / = not tested or not shown; & = joins results of further samples; [ ] = another dose, or the depositor's remark.

SMILES | PINK1 modulator | D2 agonist | gsp antag | Menin-MLL FL inh | Sfp inh | ClpP mod | gsp ag
COc1ccc(S(=O)(=O)N2CCCCCC2)cc1NC(=O)CCNC(=O)c1ccccc1Cl | 0.4% | 1.0 | / | / | / | 0.0% | ?
O=C1OC(=O)C2C1[C@@H]1CC[C@H]2O1 (stereo partly specified) | 1.1% | 1.0 | 7% | -0.8 | 10% | 1.4% | /
COc1cc(NC(=O)COC(=O)CCc2nc3ccccc3c(=O)[nH]2)cc(OC)c1 | -1.6% | -1.8 | 4% | / | / | 1.9% | 4%[15.4 µM]
Cc1cc(CNC(=O)C2CCC(=O)N(CCc3ccc(Cl)cc3)C2)no1 (stereo unspecified) | 0.0% | -0.1 | 0% | 4.0 | 15% | 1.1% | -1%[15.4 µM]
Cc1ccc2c(CN(C)Cc3ccc(Cl)cc3Cl)cc(=O)oc2c1 | 1.7% | -2.0 | -3% | / | -9% | / | -7%[15.4 µM]
CC(=O)Nc1cn(-c2ccccc2)nc1-c1ccccc1 | 0.0% | -3.8 | 4% | -4.6 | 5% | -18% | ?
COc1cccc(CNC(=O)N2CCN(S(=O)(=O)c3ccc(Cl)cc3)CC2)c1 | -2.9% | -4.5 | -8% | 5.6 | 2% | / | -23%
COc1nc(NCCN2CCOCC2)nc(Nc2ccc([N+](=O)[O-])cc2)n1 | 1.3%[38.3 µM] | 0.4 | 8% | 5.3 | 6% | -2.1% | 11%
Cc1cc(C)c(OCCOCCN2CCNCC2)c(C)c1 | -1.6% | -3.5 | -2% | -1.2 | 14% | 1.4% | -5%
CCn1c(SCC(=O)NC2CCCC2)nnc1C(C)C | 3.5% | -1.7 | 13% | 2.1 | -1% | / | 3%
CC1CCCCN1C(=O)CN1C(=O)CN(C)C(=O)c2ccccc21 (stereo unspecified) | 0.7% | 1.1 | 9% | 0.0 | 4% | -3.3% | 1%
COc1ccc(NC(=O)c2cc(C)cc(C)c2)cc1S(=O)(=O)N1CCCCC1 | 0.8% | 0.4 | -15% | / | / | -0.5% | -40%[inhibitor]
COc1cc(OC)cc(C(=O)NCC(=O)NCCN2C(=O)S/C(=C\c3ccccc3Cl)C2=O)c1 | 1.4% | 0.2 | ? | / | / | -1.1% | 14%
CC1=C(C(=O)Nc2ccc(Br)cc2)C(c2ccco2)NC(=O)N1 (stereo unspecified) | / | -1.4 | -2% | 5.1 | -3% | 0.7% | -52%[inhibitor]
COc1ccc2c(CC(=O)NCCN3C(=O)S/C(=C\c4cccnc4)C3=O)coc2c1 | 1.4% | 0.5 | 3% | -0.3 | -13% | 13µM* | 10%[15.4 µM]
CCC(=O)c1cn(/C(=C\C(=O)OC(C)(C)C)CCC(OC)OC)cc1CC | 2.2% | -0.7 | -1% | / | / | 1.1% | /
CC(=O)NS(=O)(=O)c1ccc(NC(=O)/C=C/c2ccco2)cc1 | 0.5% | -4.6 | -3% | 1.4 | 56µM* | / | 5%[15.4 µM]
CSCCC(NS(=O)(=O)c1ccc2ccccc2c1)C(=O)O (stereo unspecified) | -0.1% | -0.6 | -2% | 0.0 | 10% | -1.5% | -40%[inhibitor]
COc1ccc(NC(=O)c2cc(S(=O)(=O)N3CCOCC3)ccc2C)cc1S(=O)(=O)N1CCOCC1 | 3.4% | -1.1 | -6% | / | / | -3.0% | -14%
O=C(Cc1ccc(Br)cc1)Nc1cccc(Cl)c1 | 15% | -2.3 | -7% | 0.0 | -12% | / | -39%[inhibitor]
C=CCNC(=O)N1CCC(CO)(Cc2ccc(Cl)cc2)CC1 | 0.4% | -2.7 | 2% | -1.4 | 11% | -0.4% | -54%[inhibitor]
CCC(C)(C)n1nnnc1C(C(C)C)N(CCN1CCOCC1)Cc1cc2cccc(C)c2[nH]c1=O (stereo unspecified) | -3.4%[38.3 µM] | -4.1 | -7% | 0.1 | 8% | ? | 5%
COc1cc(C(=O)Nn2c(CC(C)C)nc3ccccc3c2=O)cc(OC)c1OC | -1.0% | -1.4 | 1% | 0.8 | 13% | -0.6% | -4%[15.4 µM]
Cc1nc(-c2noc(-c3ccccc3Cl)n2)c(C(F)(F)F)o1 | 2.0% | -0.6 | -2% | 3.0 | 0% | 0.1% | 18%
COc1cc(C(=O)Nc2sc3c(c2C(=O)NCc2ccco2)CCCC3)cc(OC)c1OC | 1.7% | -0.6 | 16% | ? | 16% | 511% | 11%
Nc1nc(-c2ccccn2)nc(N)c1Cc1ccc(Cl)cc1Cl | 17% | 2.7 | 4% | -1.4 | ? | / | 10%
O=C(c1ccc(Br)o1)N1CCN(c2ccc3nnc(-c4ccc(F)cc4)n3n2)CC1 | 1.9% | 8.6 | ? | 0.8 | 14% | -4.0% | 1%
CC(=O)Oc1ccc2c3c(c(=O)oc2c1)CCCC3 | 3.8% | -2.4 | 9% | 4.8 | 14% | 3.7% | ?
CC(C)(C)S(=O)N1Cc2cc(C(=O)N3CCc4ccccc4C3)nc(-c3cccc(-c4cccnc4)c3)c2[C@@H]1CCO (stereo partly specified) | 2.8% | -5.1 | / | / | / | -3.2% | /
O=C(Cc1ccccc1)Nn1c(O)c(/C=C2\C=Nc3ccccc32)sc1=S | 8.6% | -2.1 | -12% | ? | 17% | 0.9% | -1%
COCCNc1ncnc2c1cnn2-c1ccc(Cl)cc1 | 2.6% | -0.7 | 6% | 1.3 | 19% | 22µM* | 1%
COc1ccc(CCNC(=O)c2cc3ccccn3n2)c(OC)c1OC | -0.3% | 2.1 | -2% | 8.0 | 24% | -15% | 3%
OC1(c2cccs2)CN(c2ccc(Br)cc2)C2=[N+]1CCCS2 (stereo unspecified) | -0.5% | -3.6 | -1% | 3.9 | -25% | -0.2% | -26%
NC(N)=Nc1nc2ccc(Br)cc2c(=O)[nH]1 | 1.3% | -2.8 | / | -0.1 | -18% | / | 5%[15.4 µM]
OCCN(Cc1ccccc1)Cc1ncccc1O | 1.8% | 0.4 | -2% | / | / | / | 33%
CC12CCC(C(=O)NCCCn3ccnc3)(OC1=O)C2(C)C (stereo unspecified) | -2.2% | -1.9 | 13% | 2.2 | 4% | 0.6% | -30%
COc1ccc(C)cc1S(=O)(=O)N1CCC(C(=O)NCCC2=CCCCC2)CC1 | 2.4%[38.3 µM] | -2.1 | -21% | -0.5 | -9% | 1.3% | ?
COC(=O)C1CCN(S(C)(=O)=O)CC1 | 2.5% | -3.9 | 4% | 3.5 | 7% | -6.9% | -55%[inhibitor]
O=C(c1cc(Cl)ccc1OCc1ccccc1)N1CCOCC1 | 0.4% | 2.3 | 4% | -0.2 | 2% | -0.1% | -36%[inhibitor]
CCN(Cc1ccccc1)C(=O)COc1cc(=O)n(CC)c2ccccc12 | 2.2% | -5.1 | -5% | 4.2 | 16% | -2.7% | -35%[inhibitor]
O=C(CCC1CCCCC1)NCc1cccs1 | -1.0% | 2.1 | 3% | 0.3 | 4% | -0.2% | -7%[15.4 µM]
CCC1=Nc2cc(C(=O)NCc3ccco3)ccc2Sc2ccc(Cl)cc21 | 5.9% | 1.5 | 10% | 4.3 | ? | -0.4% | 5%
NC(=O)c1cc2ccc(O)cc2oc1=NCc1ccccc1 | -1.8%[38.3 µM] | -0.1 | -13% | -1.0 | 2% | ? | 13%
CC(C)(C)OC(=O)N1CCC(C(=O)Nc2cccc(C(=O)NCCCc3ccccc3)c2)CC1 | -1.2% | 1.8 | -23% | / | / | 3.0% | /
Brc1ccc(-c2noc3c2-c2nc(C4CCCCC4)sc2CC3)cc1 | 0.6% | -2.1 | 6% | / | / | -1.4% | -4%
Cc1cc(CNC(=O)C2(C(F)(F)F)C/C(=C\Cc3ccccc3)CCCO2)nn1C (stereo unspecified) | 3.3% | 0.0 | 4% | -8.2 | 6% | 1.3% | /
O=C(O)c1cc(/C=C/c2ccc(N3CCOCC3)cc2)nc2ccccc12 | -0.1% | -2.4 | -8% | ? | 10% | / | 12%[15.4 µM]
CCCc1[nH]n(-c2ccc(F)cc2)c(=O)c1C=Nc1ccc(C)cc1 | 2.4% | 2.7 | -4% | -2.3 | 8% | 55% | -38%[inhibitor]

By substructure: the compounds so far containing a thiophene ring, fused or not
SMILES | PINK1 modulator | D2 agonist | gsp antag | Menin-MLL FL inh | Sfp inh | ClpP mod | gsp ag
COc1cc(C(=O)Nc2sc3c(c2C(=O)NCc2ccco2)CCCC3)cc(OC)c1OC | 1.7% | -0.6 | 16% | ? | 16% | 511% | 11%
OC1(c2cccs2)CN(c2ccc(Br)cc2)C2=[N+]1CCCS2 (stereo unspecified) | -0.5% | -3.6 | -1% | 3.9 | -25% | -0.2% | -26%
O=C(CCC1CCCCC1)NCc1cccs1 | -1.0% | 2.1 | 3% | 0.3 | 4% | -0.2% | -7%[15.4 µM]

Later entries
SMILES | PINK1 modulator | D2 agonist | gsp antag | Menin-MLL FL inh | Sfp inh | ClpP mod | gsp ag
Cc1ccc(OCC(O)CN2CCN(CC(O)COC(C)C)CC2)c(C(C)(C)C)c1 (stereo unspecified) | 0.1%[38.3 µM] | 0.4 | 10% | 3.2 | 3% | 0.5% | 5%
CC(=O)N1CCCc2cc(S(=O)(=O)N3CCCC(C(=O)Nc4ccc(C)cc4C)C3)ccc21 (stereo unspecified) | -1.2%&-0.5% | -3.5 | 9% | / | 20% | -0.2%&1.0% | 0%
Cc1[nH]c2ccc(F)cc2c1CCN(Cc1ccncc1)C(=S)Nc1ccc(F)cc1 | 3.4% | -5.4 | ? | 1.0 | 8% | -1.1% | ?
Cc1ccc(C(=O)N/C(=C\c2ccc(-c3ccc(Br)cc3)o2)C(=O)NC2CCS(=O)(=O)C2)cc1 (stereo unspecified) | 13% | -3.4 | 22% | 5.3 | 6% | ? | 26%
O=C(NCCc1ccccc1)c1ccc(S(=O)(=O)N2CCCCC2)cc1 | 5.3% | -1.4 | / | / | / | -1.6% | -57%[inhibitor]
